Compound activity (PubChem)
KCNQ2 inh: KCNQ2 channel blockers in CHO-K1 cells – cell-based, FluxOR thallium flux, B-score, primary screen (AID 2156); B-score at 10 µM; 20 min; stronger effect = lower value; only compounds with negative scores are shown here; some inactives read as strong as hits; O88943; actives 1.1% (n = 310,000);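 active = fluorescence ratio B-score at most minus 3 library SDs, with starting brightness B-score within 2 library SDs, cut at about -5.5 in these data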
Target sequence (O88943 whole entry, looked up): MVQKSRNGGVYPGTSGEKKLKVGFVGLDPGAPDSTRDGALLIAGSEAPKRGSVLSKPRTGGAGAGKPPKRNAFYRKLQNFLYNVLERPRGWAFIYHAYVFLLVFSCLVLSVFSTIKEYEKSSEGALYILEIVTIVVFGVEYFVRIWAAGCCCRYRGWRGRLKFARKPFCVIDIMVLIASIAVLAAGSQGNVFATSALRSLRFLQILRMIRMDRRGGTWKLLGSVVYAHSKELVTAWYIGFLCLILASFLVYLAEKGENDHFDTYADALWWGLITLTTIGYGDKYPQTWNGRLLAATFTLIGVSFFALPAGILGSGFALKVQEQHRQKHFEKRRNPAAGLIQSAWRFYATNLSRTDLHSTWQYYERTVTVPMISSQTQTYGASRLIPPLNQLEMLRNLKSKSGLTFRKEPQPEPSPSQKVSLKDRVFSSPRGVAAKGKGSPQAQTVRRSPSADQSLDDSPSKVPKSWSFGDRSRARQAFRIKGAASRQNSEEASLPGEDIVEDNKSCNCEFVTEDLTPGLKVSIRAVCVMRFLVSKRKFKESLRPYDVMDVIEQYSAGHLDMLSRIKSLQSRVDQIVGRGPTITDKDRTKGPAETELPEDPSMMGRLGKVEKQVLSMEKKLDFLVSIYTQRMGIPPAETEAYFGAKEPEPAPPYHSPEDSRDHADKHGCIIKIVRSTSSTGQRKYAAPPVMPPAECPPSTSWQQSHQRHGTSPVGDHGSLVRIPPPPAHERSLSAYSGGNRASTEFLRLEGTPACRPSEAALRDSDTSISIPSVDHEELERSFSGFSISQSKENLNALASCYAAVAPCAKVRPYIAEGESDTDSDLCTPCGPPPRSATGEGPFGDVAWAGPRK
KCNQ2 inh baseline: second read-out of KCNQ2 inh, no call of its own (marks repeat the call); B-score; measured here: initial fluorescence intensity artifact check;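 brightness before thallium and not channel activity; 0 = typical well and far values either way flag optical interference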
Active calls of the source: *; i = inactive. Not all compounds are listed; rates above refer to the full screens.

structure	KCNQ2 inh	KCNQ2 inh baseline
COc1cccc(/C=N/NC(=O)C(=O)N/N=C/c2cccc(OC)c2OC)c1OC	i	0.75
Cc1ccc(C(=O)NC2=NCCS2)cc1Cl	i	-0.32
CC(NS(=O)(=O)c1ccccc1)C(=O)NCCc1ccccn1 (configuration not stated)	i	1.76
NC(=S)N/N=C/c1cn(-c2ccccc2)nc1-c1cccnc1	i	-0.21
Cc1cc(/C([O-])=C(/C(=S)Nc2ccc(F)cc2)[n+]2ccccc2)c(C)n1Cc1ccccc1Cl	i	0.34
COc1cccc(OCCNCc2ccccc2)c1	i	-0.05
COc1ccc(C(=O)NCCc2nnc(SCC(=O)Nc3ccccc3)n2C)cc1	i	-1.49
Cc1nn(Cc2ccc(C(=O)N3CCN(C(=O)c4ccco4)CC3)o2)c(C)c1[N+](=O)[O-]	i	0.85

Following part
structure	KCNQ2 inh	KCNQ2 inh baseline
C/C(=N\NC(=O)C1CC1(C)c1ccccc1)c1ccco1 (configuration not stated)	i	0.42
CCc1cc2cc(OC)ccc2nc1SCC(=O)Nc1cc(OC)c(OC)cc1C(=O)O	i	0.01
Cn1c(SCc2ccccc2C#N)nc2ccccc2c1=O	i	1.27
COc1cc(/C=C2\SC(=S)N(NC(=O)c3ccccc3OC)C2=O)ccc1O	i	1.33
CC1CCN(CCC(=O)Nc2nccs2)CC1	i	-0.89
CC1(C)CC2(CCO1)OC(=O)CC2C(=O)Nc1cccc2ccccc12 (configuration not stated)	i	-0.34
CCOC(=O)c1cnc(C(C)(C)C)[nH]c1=O	i	-0.53
Cc1csc2ncnc(N3CCN(C(=S)Nc4ccc(C(F)(F)F)cc4)CC3)c12	i	0.09

Next results:
structure	KCNQ2 inh	KCNQ2 inh baseline
N#C/C(=C/c1ccc2c(c1)OCO2)C(=O)Nc1ccc(O)cc1	i	0.18
Cc1c(Cl)cccc1NC(=O)CNc1cccc(C(F)(F)F)c1	-6*	0.97*
C/C=C/c1ccc(OCCn2nnc3ccccc32)c(OC)c1	i	0.47
CCOC(=O)C1CCCN(C(=O)c2cnn3c(C(F)F)cc(-c4ccc(C)cc4)nc23)C1 (configuration not stated)	i	2.06
CC1=C(C(=O)Nc2ccccn2)C(c2ccc(Br)cc2)n2ncnc2N1 (configuration not stated)	i	0.11
Cc1nn(-c2ccccc2)c(C)c1-c1nnc(-c2c(C)nn(-c3ccccc3)c2C)o1	i	0.09
Cc1ccc2nc(Cl)c(CN(Cc3cccs3)C(=O)C3CC3)cc2c1	i	-0.4
N#Cc1c2n(c3c(=O)[nH]cnc13)CCCC2	i	-0.5

The list goes on.
structure	KCNQ2 inh	KCNQ2 inh baseline
O=C1N=C(N2C=CC(=C3C=CNC=C3)C=C2)/C(=C/N=NC(=O)c2ccccc2O)S1	i	5.1
C=CCN(C(=O)c1csnn1)C(C(=O)NC1CCCCC1)c1ccc(C)cc1 (configuration not stated)	i	-0.39
COc1cc(/C=C2\SC(=Nc3ccc(F)cc3)N(c3ccc(F)cc3)C2=O)ccc1OCC(=O)O	i	-1.01
O=C(Nc1ccc2cccnc2c1)c1ccc(Br)cc1	i	0.05
COc1ccc(S(=O)(=O)N2CCSC2c2ccc(OC)c(OC)c2)cc1 (configuration not stated)	i	-1.71
CC1CCCN(CCCNC(=O)c2cc3c(Cl)nc4ccccc4c3s2)C1 (configuration not stated)	i	1
COc1ccc(N2CCN(C(=O)Cn3cnc4sc(C)c(S(=O)(=O)N5CCOCC5)c4c3=O)CC2)cc1	i	1.49
Cc1[nH]c2ccccc2c1/C=N/NC(=O)c1cccc(S(=O)(=O)Nc2ccccc2Cl)c1	i	0.05

Other structures follow:
structure	KCNQ2 inh	KCNQ2 inh baseline
COc1ccc(-c2nnc(SCC(=O)N(C)C3CCS(=O)(=O)C3)n2N)cc1OC (configuration not stated)	i	-0.43
N/C(=N\S(=O)(=O)c1cc(C(F)(F)F)cc(C(F)(F)F)c1)c1cccs1	i	-0.12
CC(C)(C)C(=O)Nc1c2c(nn1-c1cccc(Cl)c1)CS(=O)(=O)C2	i	-0.02
COc1ccc(OC)c(C2/C(=C(\O)c3ccc(OC)c(Cl)c3)C(=O)C(=O)N2CCN(C)C)c1 (configuration not stated)	i	2.36
COc1cc(CNCCO)cc(Br)c1OCc1cccs1	i	-0.71
Cc1ccc(SCc2c(C(=O)N/N=C/c3ccc4c(c3)OCO4)nnn2-c2nonc2N)cc1	i	2.23
O=C(O)CN1CCN(c2ncc(C(F)(F)F)cc2Cl)CC1	i	0.42
COc1ccc(NS(=O)(=O)CC(C)C)c(OC)c1	i	1.37

Continuation.
structure	KCNQ2 inh	KCNQ2 inh baseline
COC(=O)c1ccc(OCC(=O)NC(C)(C)C)cc1	i	0.97
CCOC(=O)N1CCC(N2CCN(c3cc(C)ccc3C)CC2)CC1	i	2.59
Cc1cccc(C)c1OCC(=O)NNC(=S)NC(=O)C1CC1	i	0.36
CCOC(=O)c1cc2c(ccn2C)n1CC(=O)N(Cc1ccccc1)c1ccccc1	i	-1.17
O=C1N/C(=N\N=C\c2cccnc2)SC1Cc1ccc(SC(F)F)cc1 (configuration not stated)	i	-1.92
CNC(=O)COc1ccc(Cl)c2cccnc12	i	0.06
Oc1ccc(-c2[nH]ncc2-c2ccc(Cl)cc2)c(O)c1	i	1.02
c1ccc2c(CNn3cnnc3)cccc2c1	i	0.15

In the list so far, these have a COOH group.
structure	KCNQ2 inh	KCNQ2 inh baseline
CCc1cc2cc(OC)ccc2nc1SCC(=O)Nc1cc(OC)c(OC)cc1C(=O)O	i	0.01
COc1cc(/C=C2\SC(=Nc3ccc(F)cc3)N(c3ccc(F)cc3)C2=O)ccc1OCC(=O)O	i	-1.01
O=C(O)CN1CCN(c2ncc(C(F)(F)F)cc2Cl)CC1	i	0.42

Next part
structure	KCNQ2 inh	KCNQ2 inh baseline
COc1cccc(CC(=O)Nc2ccc(S(=O)(=O)N3CCOCC3)cc2)c1	i	-1.47
CCN(C(=O)c1c(C)cc(=O)oc1C)c1ccc2c(c1)OCO2	i	-0.47
O=C(COc1ccc(Cl)cc1)NCCCn1ccnc1	i	2.18
CCn1c(=O)c(C(=O)NCc2ccc(F)cc2)c(O)c2ccccc21	-6.72*	-0.13*
Cn1nc(C(=O)OCc2ccc(F)cc2)c2ccccc2c1=O	i	-0.02
O=S(=O)(Cc1ccccc1)NCC1CCCN(Cc2ccc(F)c(F)c2)C1 (configuration not stated)	i	0.94
CCOc1cc(-c2nc(-c3ccc(C)nc3OCC)no2)cc(OCC)c1OCC	i	1.88
COc1cc(S(=O)(=O)NC2CCSc3ccccc32)ccc1NC(C)=O (configuration not stated)	i	0.85

(more compounds)
structure	KCNQ2 inh	KCNQ2 inh baseline
Cc1ccc(NC(=S)NNC(=S)NCc2ccccc2)cc1	i	1.11
O=c1[nH]c2ccc(S(=O)(=O)NCc3ccccn3)cc2s1	i	-0.73
C=C1SC(Nc2c(C)cccc2C)=NC12CCCCC2	i	-1.05
CCCCCOc1ccc(C(=O)NC(CCC)C(=O)O)cc1 (configuration not stated)	i	2.1
O=C(O)CCCN=C1CCCc2ccccc2N1	i	0.8
COc1cccc(/C=N/n2c(=S)n(C)c3cc(C)c(C)cc32)c1OC	-6.13*	-0.02*
Cc1ccc(OCC(=O)c2cc(C)n(-c3ccccc3)c2C)c([N+](=O)[O-])n1	i	0.04
CCc1ccc(CCC(=O)Nc2nnc(C)s2)o1	i	2.28

Some of these compounds in order of their number in KCNQ2 inh baseline, falling:
structure	KCNQ2 inh	KCNQ2 inh baseline
CCc1ccc(CCC(=O)Nc2nnc(C)s2)o1	i	2.28
CCCCCOc1ccc(C(=O)NC(CCC)C(=O)O)cc1 (configuration not stated)	i	2.1
O=C(O)CCCN=C1CCCc2ccccc2N1	i	0.8

Carrying on:
structure	KCNQ2 inh	KCNQ2 inh baseline
FC(F)(F)COc1ccc(-n2ccnc2)nn1	i	-1.29
O=C(COc1ccc([N+](=O)[O-])cc1)Nc1cc(C(=O)O)cc(C(=O)O)c1	i	0.06
Cc1ccc(C(=O)N2CCN(c3ccc(NC(=S)NC(=O)c4cccs4)cc3)CC2)cc1	i	0.06
NC(=O)c1nsc(C(=O)N(CC(=O)NCc2ccc(F)cc2)Cc2ccco2)c1N	i	-0.29
Cc1ccsc1/C=C1\SC(N2CC(C)OC(C)C2)=NC1=O (configuration not stated)	i	-0.37
Oc1ccc(Br)cc1CNc1nccs1	i	2.31
CCC(=O)Oc1oc(-c2ccccc2)nc1C=Nc1ccc(C)cc1	i	0.75
O=C1CC(=O)NC(SCC(=O)Nc2ccccc2[N+](=O)[O-])=N1	i	-0.14

Additional records follow.
structure	KCNQ2 inh	KCNQ2 inh baseline
CC(C)(C)C(=O)Nc1ccc(C(=O)OC2CCCCC2)cc1	i	-0.44
O=C(NCCCN1CCOCC1)c1cc(Cl)ccc1OCc1ccccc1	i	0.01
C=CCNC(=O)CSc1cc([N+](=O)[O-])cc(S(=O)(=O)Cc2ccccc2)c1	i	-0.58
Cc1ccc(-c2n[nH]c(=O)c3ccccc23)cc1S(N)(=O)=O	i	0.75
Cc1cc(-c2cccs2)nc(-n2cccc2)n1	i	0.86
CC(=O)C1=C(C)NC(=O)NC1c1cc(Br)ccc1OCC#N (configuration not stated)	i	0.72
Cc1cc(NC(=O)c2cccc(S(=O)(=O)N3CCCC3)c2)no1	i	0.63
COc1ccc(S(=O)(=O)N2CC(C)N(C(=O)N3CCOCC3)C2)cc1 (configuration not stated)	i	0.15

(next part)
structure	KCNQ2 inh	KCNQ2 inh baseline
CN(C(=O)c1ccc(OC2CCN(CCc3ccccc3)CC2)cc1)C1CCOC1 (configuration not stated)	i	0.05
OC(CNCc1ccco1)COc1ccccc1 (configuration not stated)	i	-1.21
CN(C(=O)CC1C(=O)NCCN1Cc1ccoc1)C1CCOCC1 (configuration not stated)	i	-0.27
OC1COC(OCc2ccccc2)C(O)C1O (configuration not stated)	i	-0.09
O=C(Cc1ccc(Br)cc1)N1CCN(c2ccccc2O)CC1	i	-0.82
CCCNC(=O)c1ccc2c(c1)ncn2-c1cc(C)cc(C)c1	i	0.79
CCOC(=O)c1c(C)[nH]c(C(=O)OCc2ccc([N+](=O)[O-])cc2)c1C	i	-0.43
CC(C)CC(=O)Nc1ccnn1C1CCN(C(=O)c2ccc(Cl)cc2F)CC1	i	0.27

(next part)
structure	KCNQ2 inh	KCNQ2 inh baseline
Cc1cccc(-c2nnn(Cc3nnc(NC(=O)c4ccccc4)s3)n2)c1	i	0.64
CC(=O)N1CCCN(Cc2nc(C3(c4ccc(C)cc4)CCCC3)no2)CC1	i	-1.53
COC(=O)NC1CCS(=O)(=O)C1 (configuration not stated)	i	2.95
CCOc1ccc(S(=O)(=O)N2CCN(CC)CC2)cc1NC(=O)c1ccccc1F	i	1.67
N#C/C(=C/c1cn(-c2ccccc2)nc1-c1cccc(S(=O)(=O)N2CCCC2)c1)C(=O)NCc1ccco1	i	-1.01
Cc1ccccc1OCC(=O)Nc1nc2ccccc2[nH]1	i	0.5
COC(=O)c1ccccc1NC(=O)CNC(=O)c1ccc(OC)cc1	i	-0.17
Cc1ccccc1CN1CCC(N2CCC(C(=O)NCC3CCCO3)CC2)CC1 (configuration not stated)	i	-0.71

Further entries
structure	KCNQ2 inh	KCNQ2 inh baseline
O=C(ONc1ccc(N=NC(=O)c2ccccc2O)cc1)c1ccccc1	i	-0.16
O=C(NCc1ccccc1)C1=C[C@@H](c2csc3ccccc23)C[C@@H](OCCCCO)O1	i	-0.05
COc1ccc(C(=O)NCCn2cc(SCC(=O)N3CCOCC3)c3ccccc32)cc1	i	-0.3
CC(=O)Nc1ccc(NC(=O)CSc2nnc(-c3ccccc3)n2Cc2ccc3c(c2)OCO3)cc1	i	-1.13
CN(C(=O)COC(=O)c1ccc(C(C)(C)C)cc1)C1CCS(=O)(=O)C1 (configuration not stated)	i	-0.83
Cc1cccc(OCCCC(=O)Nc2ccc(S(=O)(=O)N3CCCC3)cc2)c1	i	-1.24
OC(COc1ccc(F)cc1)CN1CCN(c2ccccc2F)CC1 (configuration not stated)	i	0.25
CCOC(=O)C1CN(S(=O)(=O)c2ccccc2)C1	i	-0.25

Next part
structure	KCNQ2 inh	KCNQ2 inh baseline
N#Cc1nc(COc2ccccc2)oc1N1CCCCCC1	i	0.01
c1ccc(-c2noc(-c3cccc4ccccc34)n2)nc1	i	0.48
Cc1ccc(NC2CCCN(C(=O)CCN3CCCCO3)C2)cc1C (configuration not stated)	i	-0.43
Oc1c(Br)cc(/C=N/n2c(-c3ccccc3)n[nH]c2=S)c(Br)c1O	i	0.67
COCC(=O)N1CCC(Oc2ccc(C(=O)NCc3cc(C)no3)cc2)CC1	i	2.21
Cc1ccc(C)c(OCC(=O)Nc2cc(C(=O)O)cc(C(=O)O)c2)c1	i	1.44
COc1ccc(/C=C2\SC(=O)N(CC(=O)NCCC(C)C)C2=O)cc1OC	i	-0.26
COc1ccc(N(C(=O)CNC(=O)c2ccco2)C(C(=O)NC2CCCC2)c2ccc(C)o2)cc1 (configuration not stated)	i	-0.19

(more compounds)
structure	KCNQ2 inh	KCNQ2 inh baseline
Cc1ccc(NC(=O)c2cc(C(C)(C)C)nn2Cc2ccccc2)cc1	i	-0.44
Nc1ccccc1NC(=O)c1ccccc1N	i	-0.03
C=CCNCCOc1ccccc1-c1ccccc1	i	-0.39
CCOc1ccccc1Nc1ncccc1C(=O)N1CCCC1	i	-0.01
O=C(CSc1nnc(-c2cccc(S(=O)(=O)N3CCCCC3)c2)o1)c1ccc[nH]1	i	1.47
N=c1n(-c2ccccc2)c(O)cc(=O)n1-c1ccccc1	i	0.41
CC(=O)Nc1ccc(NC(=O)COC(=O)c2ccccn2)cc1	i	-0.88
Nc1ccc2c3c(cccc13)C(=O)N(c1ccccc1)C2=O	i	13.3
Cc1nc(N)nc(Cl)c1Cc1ccc(Cl)cc1	i	-0.39
